RanGTP-Imp inh = inhibitors of RanGTP-importin-beta interaction, primary screen, biochemical, FRET, CFP-Ran, YFP-importin-beta, homogeneous; 300,000 tested, 1.1% active; AID 2216; inhibition, % (concentration not given with the values); cell-free CFP-Ran/YFP-importin-beta FRET ratio;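 active = most replicates above 15%; inconclusive = exactly half above 15%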;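 also: 0% = DMSO wells and 100% = Ran loaded with GDP instead of GTP; wells of about 40 µL received 100 nL stock; the first replicate is given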
Calb FLC = affects C. albicans growth with fluconazole; growth inhibition, % (test concentration not listed); AID 1979; 300,000 tested, 0.57% active; C. albicans CaCi-2 (fluconazole-resistant clinical isolate) + fluconazole, Alamar Blue growth, 48 h;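 active = most replicates above 75%; inconclusive = exactly half above 75%; inactive = most below 75%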;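 also: all wells also contain fluconazole at 8 µg/ml as a sub-toxic cotreatment; 0% = median of DMSO wells and 100% = median of geldanamycin control wells; wells of about 8 µL received 7.5 nL stock; the first replicate is given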
LANA-H2B inh = blocks KSHV LANA binding to histone H2A/H2B; cell-free LANA-H2A/H2B peptide, fluorescence polarization; Q9QR71; 320,000 tested, 0.6% active; inhibition, % (concentration not given with the values); in the data active = inhibition mostly above about 10%, no sharp cut-off; inactive = mostly below about 6.7%;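 also: stock transfer was 7.5 nL into about 10 µL; 0% = median of vehicle wells and 100% = median of positive control wells; one replicate is shown; the record names a cut of 25% in any replicate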
HNF4A DNA FP = change in binding of human HNF4 alpha to DNA. HNF4a-FITC DNA binding, fluorescence polarization, 1 h. activity change, % at 10 µM. 360,000 tested, 0.3% active; in the data active = activity change above about 30%, passing the limit was not always enough;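 also: controls were the assay level and a saturating level of protein; the project sought stronger binding though the title names inhibitors; some compounds called inactive have numbers as strong as hits; positive values seem to mean higher polarization but the record does not say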
Target sequence (P41235 whole entry, looked up): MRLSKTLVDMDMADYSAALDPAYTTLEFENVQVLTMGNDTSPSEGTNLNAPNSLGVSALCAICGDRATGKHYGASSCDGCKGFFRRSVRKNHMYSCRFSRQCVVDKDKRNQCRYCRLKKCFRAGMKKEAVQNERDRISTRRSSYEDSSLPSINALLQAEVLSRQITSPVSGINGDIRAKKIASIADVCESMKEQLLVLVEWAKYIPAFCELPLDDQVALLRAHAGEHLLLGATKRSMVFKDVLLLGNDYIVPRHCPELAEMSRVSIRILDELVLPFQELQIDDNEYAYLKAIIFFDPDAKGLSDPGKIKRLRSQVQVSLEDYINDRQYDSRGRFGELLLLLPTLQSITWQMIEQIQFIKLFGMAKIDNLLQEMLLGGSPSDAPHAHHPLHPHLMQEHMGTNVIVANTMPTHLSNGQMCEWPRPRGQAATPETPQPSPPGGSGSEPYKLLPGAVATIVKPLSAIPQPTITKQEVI
Vif TR-FRET = inhibitors of Vif binding to APOBEC3G peptide, primary screen, biochemical, TR-FRET, GST-Vif 1-94, biotin-A3G peptide, dose response retest (AID 1117319); TR-FRET GST-Vif / biotin-A3G peptide binding; higher % means a stronger effect; test concentration not given here; strong numbers were not always called active; inhibition, %, or IC50 in µM where a hit was titrated; 260,000 tested, 0.57% active;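 active = above the screen mean plus three standard deviations and confirmed in dose response; inconclusive = results disagree or hit not tested in dose response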;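 also: Vif residues 1-94 fused to GST binding biotinylated APOBEC3G peptide 110-148; 0% = full assay without inhibitor and 100% = GST in place of GST-Vif; retest series ran down from 100 µM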
Beta2AR agonist = human beta-2 adrenergic receptor agonism by FAP. P07550. Am2.2-beta2AR cells, FAP receptor internalization, flow cytometry; reference of the scale not given here. response, % (test concentration not listed). 340,000 tested, 0.43% active. AID 504454;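 active = response above a set limit, near 3 SD of response in nonfluorescent compounds, cut at about 42% in these data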;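 also: stock transfer was 100 nL into about 11 µL; a reference agonist was the positive control; negative values mostly stem from fluorescent compounds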
Target sequence (P07550 whole entry, looked up): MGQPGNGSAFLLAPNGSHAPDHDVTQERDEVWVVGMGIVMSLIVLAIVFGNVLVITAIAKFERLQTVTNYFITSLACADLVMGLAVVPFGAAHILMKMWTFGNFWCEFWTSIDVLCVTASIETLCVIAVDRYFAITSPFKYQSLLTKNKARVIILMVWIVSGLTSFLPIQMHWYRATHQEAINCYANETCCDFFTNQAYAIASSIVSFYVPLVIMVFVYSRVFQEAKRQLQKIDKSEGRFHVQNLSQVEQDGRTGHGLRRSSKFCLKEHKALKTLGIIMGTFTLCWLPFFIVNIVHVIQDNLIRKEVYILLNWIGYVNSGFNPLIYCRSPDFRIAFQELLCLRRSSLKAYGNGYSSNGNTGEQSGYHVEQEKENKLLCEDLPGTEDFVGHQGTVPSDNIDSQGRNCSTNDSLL
ALR inh = human ALR oxidase inhibition via reduced H2O2; P55789; purified ALR, DTT oxidation, H2O2 HRP-luminol luminescence; 290,000 tested, 3.8% active; inhibition, % (no concentration beside the values);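 active = mean and each replicate at 75% or more; inconclusive = only one of the two met; inactive = neither met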;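 also: stock transfer was 7.5 nL into about 7.5 µL; 0% = neutral wells and 100% = wells with inactivated enzyme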
Target sequence (P55789 whole entry, looked up): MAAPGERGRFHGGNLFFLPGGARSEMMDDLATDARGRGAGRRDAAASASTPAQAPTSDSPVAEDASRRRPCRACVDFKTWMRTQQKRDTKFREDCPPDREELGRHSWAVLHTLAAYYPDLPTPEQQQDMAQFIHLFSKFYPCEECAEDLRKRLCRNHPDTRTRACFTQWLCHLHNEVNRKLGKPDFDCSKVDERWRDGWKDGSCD
* marks the source's active call; other numbers are inactive results; u = inconclusive; x = no result given; & = joins results of further samples.

SMILES	RanGTP-Imp inh	Calb FLC	LANA-H2B inh	HNF4A DNA FP	Vif TR-FRET	Beta2AR agonist	ALR inh
COc1ccc(CN(C(=O)CNC(=O)c2ccco2)C(C(=O)NCC2CCCO2)c2ccc(OC)c(OC)c2)cc1 (centres undefined)	-3.3	-6	-1.9	2.2	x	-1	-6
O=C(CCCc1ccccc1)Nc1cccc(C(=O)O)c1	3.8	9	-0.1	6.1	-5%	9	-6
N#Cc1ccsc1NC(=O)CN1CCN(Cc2ccccc2)CC1	0.4	0	-0.5	1.8	21%	0	-12
CCOc1ccc2ccccc2c1/C=N/NC(=O)CNC(=O)Cc1ccccc1	-4.1	31	-0.9	-6.1	x	5	-9
COc1ccc(N(CC(=O)NCCSCc2ccco2)S(=O)(=O)c2ccccc2)cc1	-1.8	12	-3.7	2.5	3%	-1	5
CCc1ccc(-c2cc3c(=O)n(CC(=O)N4CCCCCC4)nc(C)n3n2)cc1	1.1	1	-1.9	-1.5	x	-1	-31
O=C(NCc1ccccn1)C1Nc2ccc(C(F)(F)F)cc2C2C=CCC12 (centres undefined)	5.0	-2	3.0	-3.3	x	0	0
COc1ccc(-n2cnnc2SCC(=O)c2ccc(S(=O)(=O)N3CCOCC3)cc2)cc1	2.0	6	5.1	6.9	14%&-5%	-4	-2
COC(=O)[C@@H]1C[C@H]2CC[C@H](O)C[C@H]2N1Cc1ccc(C(F)(F)F)cc1	2.2	-9	-4.1	3.6	x	1	x
O=C(CCN1C(=O)/C(=C\c2ccccc2)SC1=S)NNC(=O)c1ccccc1O	1.0	3	-3.4	9.9	-4%	-5	1
CC(OC(=O)c1ccc(Cl)nc1)C(=O)N1CCc2ccccc21 (centres undefined)	1.6	2	-11	-4.2	-5%	1	12
CCOc1ccc(OCCN(C)Cc2ccccc2)cc1	-1.2	-14	0.1	2.6	0%	-1	0
Cc1nnc(-c2ccc(Cl)cc2)[nH]c1=O	-11	23	1.5	1.3	31%	7	7
CN(c1ccc(C(=O)NCc2ccccc2)cc1)S(C)(=O)=O	-2.5	-11	-10	-2.1	-1%	-6	-1
CCc1cc(CNC(=O)CC2C(=O)NCCN2CC2CCCCC2)on1 (centres undefined)	2.5	-4	7.0	3.2	-3%	6	x
CCN(CC)C(=O)c1sc(NC(=O)c2ccc(C)c([N+](=O)[O-])c2)c(C#N)c1C	-2.1	-7	-2.9	1.2	5%	3	0
Nc1ccc2ccccc2c1C(=O)c1ccccc1	x	x	x	5.8	4%	-2	x
C=CCOc1ccc(C2C3=C(CCCC3=O)N(CC(=O)O)C3=C2C(=O)CCC3)cc1OCC	1.7	29	1.9	-3.7	x	-5	-17
CCOc1ccc(C(C)(N)C(=O)O)cc1 (centres undefined)	x	-11	0.9	4.5	8%	-9	-2
CC(CCc1ccc(O)cc1)NC1c2ccccc2-c2ccccc21 (centres undefined)	4.8	8	-1.0	-2.1	0%	9	64
O=C(/C=C/c1cccc(Cl)c1Cl)OCC(=O)N1CCOCC1	x	x	x	-1.1	0%	3	x
O=C(COc1ccc(S(=O)(=O)NC2CCCCC2)cc1)NCC1CCCO1 (centres undefined)	-0.1	14	-5.3	-0.8	1%	-3	-2
CC(=O)C1=C(C)OC(N)=C(C#N)C1c1ccco1 (centres undefined)	1.0	4	-6.0	-0.3	-1%	-4	-15
Cc1ccc(S(=O)(=O)N2CCC(C(=O)OCC(=O)N(CC(C)C)C3CCS(=O)(=O)C3)CC2)cc1C (centres undefined)	-0.9	-2	2.6	-2.5	-3%	1	-8
Cc1cc(C(C#N)c2cccc(Cl)c2)n2ncnc2n1 (centres undefined)	9.4	96*	7.5	1.0	5%	2	20
CCOc1ccc(CN(C)C(=O)CCNC(=O)c2ccco2)cc1	x	x	0.8	-3.9	x	8	-4
CC1CN(C(=S)Nc2cccc(Cl)c2)CC(C)O1 (centres undefined)	-2.7	-11	-2.3	0.4	x	-1	-6
C/C(=C\C(=O)c1sccc1Cl)N(C)C	-4.2	3	1.1	-5.8	24%	2	15
O=C(CN(Cc1ccc(F)cc1)C(=O)c1csnn1)NCc1ccc2c(c1)OCO2	1.4	-16	2.2	-2.9	x	5	-1
CCN(C1CCCCC1)S(=O)(=O)c1cc2c3c(c1)CCN3C(=O)CC2	0.1	4	-2.0	-1.6	7%	-1	-6
Cn1c(C(=O)NCc2ccccn2)cc2c(=O)n(C)c3ccccc3c21	1.4	-4	1.5	-2.2	14%	-16	-1
CC(=O)Nc1ccc(S(=O)(=O)NCCC(=O)NCCCc2ccccc2)cc1	x	x	-1.1	-0.8	x	0	-6
N/C(=N\OC(=O)c1cccs1)c1cccnc1	-1.8	-12	-0.2	-0.1	x	-10	0
CCN1CCN(c2cc(C)c3cc(NC(=S)N4CCCCC4)ccc3n2)CC1	3.7	u	2.6	-2.0	3%	14	66
NS(=O)(=O)c1cccc(NC(=O)COC(=O)c2cc(Cl)ccc2[N+](=O)[O-])c1	-1.4	6	-1.9	-0.8	25%	-11	-18
Cc1cc(C)nc(NNS(=O)(=O)c2ccc(Cl)cc2)n1	x	x	13	-1.0	-3%	1	-4
Cn1cnc2c(ncn2C2OC(CO)C(O)C2O)c1=S (centres undefined)	x	x	x	1.0	-12%	-14	x
CCOCCCn1c(SCC(=O)Nc2oc(C)c3c(C)n[nH]c(=O)c23)nnc1-c1ccncc1	-6.1	-8	x	2.7	2%	-5	x
Cc1c(C(=O)OCC2CCCO2)[nH]c2c1C(=O)CC(c1ccco1)C2 (centres undefined)	1.8	11	2.8	-13	u	22	-19
Cc1cccc(OCc2n[nH]c(=S)n2-c2ccccc2)c1	1.0	70	-5.6	1.5	2%	-97	77*

Arranged by length of the SMILES (high to low): some entries from above.
SMILES	RanGTP-Imp inh	Calb FLC	LANA-H2B inh	HNF4A DNA FP	Vif TR-FRET	Beta2AR agonist	ALR inh
Cc1cc(C(C#N)c2cccc(Cl)c2)n2ncnc2n1 (centres undefined)	9.4	96*	7.5	1.0	5%	2	20
O=C(CCCc1ccccc1)Nc1cccc(C(=O)O)c1	3.8	9	-0.1	6.1	-5%	9	-6
C/C(=C\C(=O)c1sccc1Cl)N(C)C	-4.2	3	1.1	-5.8	24%	2	15

(listing goes on)
SMILES	RanGTP-Imp inh	Calb FLC	LANA-H2B inh	HNF4A DNA FP	Vif TR-FRET	Beta2AR agonist	ALR inh
COc1ccc(C(=O)Oc2cc(OC)cc(OC)c2C(C)=O)cc1	1.9	6	1.4	0.5	x	-3	26
CCOC(=O)C1CCCN(C(=O)Cn2sc3nc(C)cc(C)c3c2=O)C1 (centres undefined)	-0.4	4	-5.2	-2.8	13%	15	35
O=C(NCc1nnc(SCC(=O)N2CCCC2)o1)c1c(F)cccc1F	1.6	-1	-4.0	1.4	x	-5	-10
Cc1ccc(Cc2c(C)c(C#N)c3[nH]c4ccccc4n3c2=O)cc1	21*	26	2.9	-4.0	-18%	9	-20
COc1ccc(-n2c(SCC(=O)Nc3ccccc3OC)nc(O)cc2=O)cc1	20	-1	7.9	2.4	9%	12	29
COc1ccc(C2C(C(C)=O)=C(O)C(=O)N2Cc2ccccc2)c(OC)c1 (centres undefined)	-1.4	15	-25	-0.4	-8%	-4	-4
CCCCOC(=O)c1ccc(N=Nc2c(C)c(C#N)c(O)[nH]c2=O)cc1	-1.5	18	-6.6	16	15%	15	-5
CCOC(=O)CNC(=O)c1sc2ncnc(N3CCc4ccccc4C3)c2c1C	0.7	58	-4.9	0.8	12%	8	-1
CNC(=S)NC1CC2CCCC(C1)N2Cc1ccco1 (centres undefined)	0.7	-14	3.0	-0.5	25%	9	0
CC1CN(C2=N/C(=C/c3ccc4c(c3)OCO4)C(=O)N2)CC(C)O1 (centres undefined)	1.7	4	-1.9	-0.9	-1%	2	2
O=C(NCCc1ccc(C(F)(F)F)cc1)C1CC(=O)N(c2ccc3c(c2)OCCO3)C1 (centres undefined)	x	x	3.7	-1.7	x	1	-3
CCOC(=O)C1(CC2CCCCO2)CCN(Cc2ccc(OC)cc2F)CC1 (centres undefined)	-1.7	-47	-2.0	-2.9	2%	-3	3
Cc1ccc(OCC(=O)Nc2ccc(N3CCN(C(=O)c4ccco4)CC3)cc2)cc1C	-1.0	-11	3.3	0.9	-2%	12	3
O=C(/C=C/c1cccc(F)c1)N(c1ccccn1)C1CCCCC1	-4.6	-6	-4.6	-1.5	x	16	-2
CCOc1ccc(S(=O)(=O)N2CCC(C(=O)NCc3ccccc3CN3CCCC3)CC2)cc1	x	x	-0.5	4.4	-11%	8	2
c1ccc(-c2nnc(N3CCCC3)nc2-c2ccccc2)cc1	-1.9	5	x	4.0	4%	-12	x
Cc1ccc(NC(=O)CCN2CC(C)OC(C)C2)cc1C (centres undefined)	12	0	0.2	3.1	x	-2	-18
Cc1cccc(N2CCN(C(=O)CCN3C(=O)C4C5C=CC(C5)C4C3=O)CC2C)c1 (centres undefined)	6.2	5	-4.7	0.7	-10%	0	84*
CC(=O)Nc1ccc(NC(=O)COC(=O)c2cc([N+](=O)[O-])ccc2N2CCOCC2)cc1	-3.1	3	-6.1	1.9	x	2	-1
Cc1c(Cl)cccc1NC(=O)NCCCN1CCCC1=O	-2.9	0	-0.2	4.2	-1%	-7	-3
CCN(CC(=O)Nc1c(F)cccc1F)C(=O)c1cc(S(=O)(=O)N(C)C)ccc1N1CCCC1	-2.1	-7	1.6	-2.1	-4%	0	-4
O=C(O)CCCCCNC(=O)C(=O)C1C(=O)Nc2ccccc21 (centres undefined)	-2.2	6	1.7	-1.5	x	-9	26
Cc1ccc(-c2c3c(nc4sc(C(N)=O)c(N)c24)CCC3)cc1	-0.9	-5	-4.2	1.0	2%	-3	4
COc1ccc(S(=O)(=O)N2CCOCC2)cc1C(C)C	6.0	10	-0.5	-0.2	-2%	-2	-48
COc1ccccc1N1CCN(C(=O)C2CCN(C(=O)c3ccccc3Cl)CC2)CC1	0.7	-5	-9.0	-4.5	x	9	17
O=S1(=O)c2ccccc2OC(COCc2ccccc2)CN1Cc1ccccc1 (centres undefined)	x	x	x	-6.8	-8%	1	x
N/C(=N\OC(=O)CCCN1C(=O)c2ccccc2C1=O)c1ccc(Br)cc1	1.0	-3	-4.5	0.2	-4%	2	4
O=C1CC(NC23CC4CC(CC(C4)C2)C3)C(=O)N1c1ccc2c(c1)OCO2 (centres undefined)	-3.1	-23	-8.3	0.2	-1%	1	-2
C1CN(c2nc3nonc3nc2N2CCSCC2)CCO1	3.4	3	-4.3	1.9	30%	-10	x
COc1cc(CCCN2C(=S)NC[C@H]2Cc2ccc(O)cc2)cc(OC)c1OC	-0.6	-6	-4.3	2.0	-8%	-10	-2

Six compounds from above, limited to Beta2AR agonist:
Molecule	Beta2AR agonist
COc1ccccc1N1CCN(C(=O)C2CCN(C(=O)c3ccccc3Cl)CC2)CC1	9
O=S1(=O)c2ccccc2OC(COCc2ccccc2)CN1Cc1ccccc1 (centres undefined)	1
N/C(=N\OC(=O)CCCN1C(=O)c2ccccc2C1=O)c1ccc(Br)cc1	2
O=C1CC(NC23CC4CC(CC(C4)C2)C3)C(=O)N1c1ccc2c(c1)OCO2 (centres undefined)	1
C1CN(c2nc3nonc3nc2N2CCSCC2)CCO1	-10
COc1cc(CCCN2C(=S)NC[C@H]2Cc2ccc(O)cc2)cc(OC)c1OC	-10

As entered above.
C1CN(c2nc3nonc3nc2N2CCSCC2)CCO1 @ Beta2AR agonist: -10
COc1ccccc1N1CCN(C(=O)C2CCN(C(=O)c3ccccc3Cl)CC2)CC1 @ Beta2AR agonist: 9
N/C(=N\OC(=O)CCCN1C(=O)c2ccccc2C1=O)c1ccc(Br)cc1 @ ALR inh: 4
O=S1(=O)c2ccccc2OC(COCc2ccccc2)CN1Cc1ccccc1 (centres undefined) @ Vif TR-FRET: -8%
